Screening data from PubChem BioAssay.
FPR ligand: human FPR ligand, with FPRL1 counter-screen | FPR-expressing cells, fluorescent ligand binding, flow cytometry | P21462 | AID 440 | 24,000 compounds, 0.74% hits | inhibition, %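 (tested at 6.7 µM)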;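 note: 0% = buffer wells and 100% = receptor blocker peptide wells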
Target sequence (P21462 whole entry, looked up): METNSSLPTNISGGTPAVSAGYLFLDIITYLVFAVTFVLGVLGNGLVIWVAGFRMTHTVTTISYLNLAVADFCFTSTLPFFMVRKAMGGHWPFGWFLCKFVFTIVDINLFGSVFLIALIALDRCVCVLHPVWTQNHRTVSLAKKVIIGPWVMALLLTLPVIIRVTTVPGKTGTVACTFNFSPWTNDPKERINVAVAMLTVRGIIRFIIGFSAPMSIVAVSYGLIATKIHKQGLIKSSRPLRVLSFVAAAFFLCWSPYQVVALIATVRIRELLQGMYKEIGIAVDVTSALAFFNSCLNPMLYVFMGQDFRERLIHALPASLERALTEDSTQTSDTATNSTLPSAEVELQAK
VCAM-1 up imaging: enhancers of VCAM-1 display on endothelial cells, imaging, high-content imaging, pooled HUVEC, TNFa stimulus (AID 457). Pooled HUVEC, TNFa-induced VCAM-1 immunofluorescence imaging; hits of this screen are not shown here. calls only. 10,000 compounds, 0.2% hits;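 active = a top-ranked rise in VCAM-1 staining upheld on image or statistical review; inactive = the rest, including candidates rejected on review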;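 note: compounds tested at 5 µM in the well; cells exposed to compound for 24 hours before fixing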
VCAM-1 inhibition: inhibitors of TNFa-induced VCAM-1 surface display, cell-based, plate reader, pooled HUVEC, TNFa stimulus (AID 454). 10,000 compounds, 0.2% hits. inhibition, % at 5 µM. HUVEC TNFa-induced VCAM-1 surface immunofluorescence, plate reader; numbers were filed only for top-ranked candidate wells;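 active = compound among top-ranked inhibitors of TNF-induced VCAM-1 adhesion protein staining, with the hit upheld by image or statistical review; inactive = the rest, including hits rejected on review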;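 note: 0% = TNFa with vehicle and 100% = cells without TNFa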
VCAM-1 imaging: suppression of endothelial VCAM-1 upregulation – imaging, high-content imaging, pooled HUVEC, TNFa stimulus (AID 456) | HUVEC TNFa-induced VCAM-1 surface expression, immunofluorescence imaging; numbers were filed only for top-ranked candidate wells | inhibition, % at 5 µM, or IC50 in µM where a hit was titrated | 10,000 compounds, 0.2% hits;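 active = top tenth filtered wells with inhibition above zero that passed visual or statistical confirmation; inactive = the rest, including hits rejected on review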;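 note: 0% = stimulated vehicle wells and 100% = unstimulated cells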
FPRL1 ligand: ligands of human FPRL1, also counter-screen for FPR ligands | P25090 | FPRL1-expressing cells, fluorescent ligand binding inhibition, flow cytometry | inhibition, %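 (tested at 6.7 µM)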 | 24,000 compounds, 0.3% hits | AID 441;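 note: 0% = buffer alone and 100% = receptor blocker peptide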
Target sequence (P25090 whole entry, looked up): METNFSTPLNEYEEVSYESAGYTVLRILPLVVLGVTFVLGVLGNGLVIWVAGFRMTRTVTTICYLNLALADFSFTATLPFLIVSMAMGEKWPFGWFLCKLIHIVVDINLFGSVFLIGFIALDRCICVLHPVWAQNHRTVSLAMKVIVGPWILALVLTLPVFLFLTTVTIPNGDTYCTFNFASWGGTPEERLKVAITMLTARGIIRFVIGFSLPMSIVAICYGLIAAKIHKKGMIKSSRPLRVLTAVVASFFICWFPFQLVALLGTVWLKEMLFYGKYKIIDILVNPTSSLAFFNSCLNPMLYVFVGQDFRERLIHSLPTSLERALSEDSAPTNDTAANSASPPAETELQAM
The depositor's hits bear a star; i = inactive; x = not tested or not shown.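 Rule for the calls, unless noted: active = mean above 30%; inconclusive = self-fluorescent; inactive = the rest.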 Only part of the results is shown. The share of hits here may be higher or lower than overall.

nr	Structure	FPRL1 ligand	VCAM-1 imaging	VCAM-1 up imaging	VCAM-1 inhibition	FPR ligand
1	Cc1c(C(=O)NCCc2ccccc2)oc2ccc(S(=O)(=O)N3CCOCC3)cc12	12	x	x	x	24
2	Cn1cccc1Cc1nnc(SCC(=O)NCCc2ccccc2)n1-c1ccc(F)cc1	-6	x	x	x	0
3	CCOC(=O)c1cnc(-n2cc(C)cn2)nc1Nc1ccccc1OC	-6	i	i	i	0
4	CCOC(=O)CSc1nnc(CNC(=O)c2ccc(OC)cc2OC)n1-c1ccc(OC)cc1	2	x	x	x	1
5	Cc1nc2sc(C(c3ccccc3)N3CCN(c4ccccc4F)CC3)c(O)n2n1 (centres undefined)	-1	i	i	i	-6
6	Cc1nn(Cc2ccc(Cl)cc2)c(C)c1NC(=O)c1cc(-c2ccco2)on1	-3	x	x	x	-1
7	Cc1ccc2oc(=O)c3cnn(CC(=O)NC4CCN(Cc5ccccc5)CC4)c3c2c1	-2	x	x	x	-5
8	Cc1ccc(CSC2=NCCN2C(=O)C2CC2)cc1	-1	i	i	i	1
9	CC(C)C(c1nnnn1C1CCCC1)N1CCN(C(=O)c2ccco2)CC1 (centres undefined)	2	i	i	i	-6
10	C/C(=N\O)C1(C)N(O)C(C)(C)C(c2ccc(Br)cc2)=[N+]1[O-] (centres undefined)	1	x	x	x	2
11	Cc1cc(NC(=O)CCOc2ccccc2)no1	-3	i	i	i	4
12	CCCn1c2ccccc2c2nnc(SCC(=O)Nc3ncccn3)nc21	1	i	i	i	2
13	CCN(CCCNC(=O)C1CCN(S(=O)(=O)c2c(C)[nH]c(=O)[nH]c2=O)CC1)c1cccc(C)c1	-18	x	x	x	-13
14	CC1Cc2ccccc2N1C(=O)CSc1nnc2n1C(C)(C)Cc1ccccc1-2 (centres undefined)	2	i	i	i	4
15	COc1ccc(NC(=O)Cn2nnc(C(N)=O)c2N)c(OC)c1	9	x	x	x	-3
16	CCOC(=O)c1ccc2[nH]cc(C(C)=O)c(=O)c2c1	6	x	x	x	9
17	COc1cc(OC)c(C2C(C(=O)Nc3ccccc3)=C(C)Nc3ncnn32)cc1OC (centres undefined)	-2	x	x	x	-5
18	CCOc1ccc2[nH]c(C)c(CN3CCCCC3)c(=O)c2c1	12	x	x	x	-4
19	O=C(C1=C(O)C(=O)N(Cc2ccccc2)C1c1ccco1)c1ccco1 (centres undefined)	-4	x	x	x	43*
20	O=C(C1CCN(S(=O)(=O)c2cccs2)CC1)N1CCCCCC1	4	x	x	x	2
21	c1ccc(CC2CNc3ccccc3CN2)cc1 (centres undefined)	-2	x	x	x	0
22	COc1ccc(OC)c(NC(=O)C(CC(C)C)NC(=O)C2CCCCC2)c1 (centres undefined)	-5	x	x	x	10
23	COc1ccc(NC(=O)CSC2=NC(=O)CC(C)=N2)cc1	7	x	x	x	-6
24	COc1ccccc1CNC(=O)c1ccc(CNc2c(N3CCCC3)c(=O)c2=O)cc1	-1	x	x	x	-1
25	CC(=O)C1=C(O)C=C(c2ccco2)CC1c1ccco1 (centres undefined)	3	x	x	x	1
26	O=C1c2ccccc2C(Nc2cccnc2)N1Cc1ccccc1Cl (centres undefined)	5	i	i	i	-1
27	c1cc(-c2nn[nH]n2)ccc1CN1CCCCC1	-4	x	x	x	-2
28	COC(=O)CNC(=O)Cn1cnc2sc(C)c(S(=O)(=O)N3CCC(C)CC3)c2c1=O	2	x	x	x	-12
29	O=C(CN1CCN(Cc2ccccc2)CC1)Nc1ccc(Cl)cn1	-1	i	i	i	-5
30	COCCCNC(=O)Cn1cc2c(n1)CCC(C)C2 (centres undefined)	-4	i	i	i	-1
31	FC(F)(F)Oc1ccc(Nc2nc3ccccc3o2)cc1	8	x	x	x	-3
32	O=C(O)C1CCC(CNCc2cccnc2)CC1 (centres undefined)	-4	x	x	x	-2
33	COc1ccc(OC)c(C2=NOC(C(=O)Nc3cccc(C(C)=O)c3)C2)c1 (centres undefined)	0	x	x	x	4
34	CCOC(=O)C1CCN(C(=O)CSc2cc(=O)n(C)c3ccccc23)CC1	1	x	x	x	-2
35	CCOC(=O)N1CCN(S(=O)(=O)c2ccc(Br)s2)CC1	5	i	i	i	6
36	COc1ccc2c(c1)CCc1c(C(=O)N3CC4(C)CC3CC(C)(C)C4)noc1-2 (centres undefined)	-2	i	i	i	-1
37	COc1cccc(C(=O)OCn2nnc3ccccc3c2=O)c1	1	i	i	i	10
38	CCC(Cc1ccccc1)NC(=O)CN1C(=O)CSc2ncccc21 (centres undefined)	-6	x	x	x	0
39	Cn1c(=O)cc(OCC(=O)NC2CCCCC2)c2ccccc21	-1	x	x	x	5
40	COC(=O)c1ccc(OCc2nc(N)nc(N3CCOCC3)n2)cc1	5	x	x	x	4
41	Cc1nnc(N(Cc2ccco2)C(=O)c2cccc(C#N)c2)s1	5	i	i	i	-2
42	NC(=O)NC(c1ccccc1)c1ccccc1F (centres undefined)	5	i	i	i	2
43	CCc1cccc2c(=O)c(C(=O)N3CCCCCC3)c[nH]c12	0	i	i	i	3
44	O=C(CC(=O)c1cc(Cl)ccc1O)c1ccccc1	6	i	i	i	6
45	Cc1ccc(Cn2c(NCCc3ccccc3)nc3c2c(=O)n(C)c(=O)n3C)cc1	4	i	i	i	11
46	CC(C)(C)NC(=O)CN(Cc1cccs1)C(=O)c1csnn1	-2	i	i	i	-4
47	O=C(Nc1cccc2c1CCCC2)C1CCN(c2nnnn2-c2ccccc2)CC1	-3	i	i	i	-12
48	CCN(CCNC(=O)c1cccc(N2CCCC2=O)c1)c1ccccc1	-2	x	x	x	1
49	CC1=Nn2c(nnc2-c2ccccc2)SC1	5	i	i	i	10
50	CC(C)NC(=O)c1ccccc1NC(=O)c1ccccc1N(C)S(C)(=O)=O	-7	i	i	i	-5
51	CCOc1ccccc1-c1nc(C(N)=O)c2[nH]c(=O)n(-c3cccc(C)c3)c2n1	1	x	x	x	2
52	Cn1c(=O)c2c(ncn2CC(=O)OCC(=O)NC2CCCc3ccccc32)n(C)c1=O (centres undefined)	-1	i	i	i	10
53	Cc1cc(C)c(C(=O)CSc2nnc(-c3ccccc3Br)o2)cc1C	-2	i	i	i	6
54	COC(=O)c1ccc(C2/C(=C(\O)c3ccc(OC)c(C)c3)C(=O)C(=O)N2c2cc(C)on2)cc1 (centres undefined)	-14	x	x	x	-13
55	CCOc1ccc2ccccc2c1C(=O)N1CCN(c2ccccc2)CC1	3	i	i	i	2
56	O=C(NCCN1CCN(c2ccccc2)CC1)C1CCN(S(=O)(=O)c2cccc3nonc23)CC1	7	x	x	x	-3
57	O=C(CN1CCN(C(=O)c2cccs2)CC1)Nc1ccc(Br)cc1	-1	x	x	x	7
58	CCNC(=O)C1CC(=O)N(Cc2ccc3c(c2)OCO3)C(=Nc2ccc(OCC)cc2)S1 (centres undefined)	2	i	i	i	-3
59	O=C(COC(=O)c1ccc(Br)o1)Nc1ccc(S(=O)(=O)N2CCCC2)cc1	-1	i	i	i	4
60	Cn1cnc(S(=O)(=O)Nc2ccc(C(F)(F)F)cc2)c1	-4	i	i	i	-2

Following part:
nr	Structure	FPRL1 ligand	VCAM-1 imaging	VCAM-1 up imaging	VCAM-1 inhibition	FPR ligand
61	Cc1ccc(CN2C(=O)CCC2C(=O)NCc2ccc3c(c2)OCO3)cc1 (centres undefined)	-4	x	x	x	-1
62	COc1ccc(C2c3c(oc4ccccc4c3=O)C(=O)N2Cc2ccncc2)cc1OC (centres undefined)	1	i	i	i	-2
63	C=CCn1c(NC)cc(=O)n(C)c1=O	-5	x	x	x	0
64	Cc1nc(S(=O)(=O)N2CCOCC2)c(C#N)c(C)c1Cl	-9	x	x	x	3
65	CC1(C)CC(=O)C=C(Nc2ccccc2O)C1	2	x	x	x	-15
66	CCC1Oc2ccc(C)cc2N(CC(=O)NCCC2=CCCCC2)C1=O (centres undefined)	9	x	x	x	1
67	O=C(NCc1cccs1)C1CCCN(c2nc3ccccc3o2)C1 (centres undefined)	-3	x	x	x	5
68	Cc1cc(C(F)(F)F)c(C#N)c(SCC(=O)NC(C)(C)C)n1	-4	x	x	x	4
69	Cc1ccc(/C(O)=C2/C(=O)C(=O)N(CCCn3ccnc3)C2c2ccccn2)cc1 (centres undefined)	-1	x	x	x	-29
70	C/C=C/Cn1c(Br)nc2c1c(=O)[nH]c(=O)n2C	5	i	i	i	1
71	CC(=O)OCC(=O)[C@@]1(O)CC[C@H]2[C@@H]3CCC4=CC(=O)CC[C@]4(C)[C@H]3C(=O)C[C@@]21C	-2	i	i	i	-6
72	Cc1ccc2c(c1)NCC(C(=O)NC1CCC(C)CC1)O2 (centres undefined)	4	x	x	x	8
73	O=C(c1ccco1)N1CCN(S(=O)(=O)c2ccc3c(c2)CCN3C(=O)C2CC2)CC1	0	x	x	x	1
74	O=C(CSc1nnc(Cc2cc(=O)[nH]c(=O)[nH]2)n1-c1ccccc1)N1CCCC1	0	x	x	x	2
75	O=C(NCC(c1cccnc1)N1CCN(c2ccccc2F)CC1)OCc1ccccc1 (centres undefined)	7	x	x	x	4

Of the compounds above, these contain a tert-butyl group.
nr	Structure	FPRL1 ligand	VCAM-1 imaging	VCAM-1 up imaging	VCAM-1 inhibition	FPR ligand
46	CC(C)(C)NC(=O)CN(Cc1cccs1)C(=O)c1csnn1	-2	i	i	i	-4
68	Cc1cc(C(F)(F)F)c(C#N)c(SCC(=O)NC(C)(C)C)n1	-4	x	x	x	4

Other structures follow:
nr	Structure	FPRL1 ligand	VCAM-1 imaging	VCAM-1 up imaging	VCAM-1 inhibition	FPR ligand
76	CC(C)(C)n1ncc2c(=O)n(CC(=O)NCc3ccc(F)cc3)cnc21	4	i	i	i	6
77	COc1cccc(C2C(C(=O)OCc3ccccc3)=C(C)Nc3ncnn32)c1OC (centres undefined)	2	x	x	x	-6
78	O=C(CN1CCCN(Cc2ccc(F)cc2Cl)C1=O)NCc1ccccc1	-2	x	x	x	6
79	COc1ccccc1OCC(O)Cn1nc(C)cc1C (centres undefined)	-2	x	x	x	2
80	CCOC(=O)CN1CC23C=CC(O2)C(C(=O)NCc2ccc(F)cc2)C3C1=O (centres undefined)	0	i	i	i	5
81	CCOc1cc2[nH]c(=O)n(CCCCC(=O)N3CCCCCC3)c(=O)c2cc1OCC	-2	i	i	i	-1
82	COc1cc2[nH]c3c(=O)n(CCN(C(C)C)C(C)C)cnc3c2cc1OC	2	i	i	i	1
83	CCCN(C(=O)Cc1nc(N)n[nH]1)C1(C(=O)Nc2c(C)cccc2C)CCCCC1	0	x	x	x	1
84	O=C(Nc1ccc(N2CCCCC2)cc1)c1ccc(F)cc1	-5	i	i	i	-1
85	Cn1cc(Br)c(C(=O)NC2CCCCC2)n1	7	i	i	i	13
86	CCOC(=O)c1c(C)oc2c1c(C(c1ccncc1)N1CCOCC1)c(O)c1ccccc12 (centres undefined)	1	x	x	x	-4
87	CCn1c(SCC(=O)Nc2cc(C)on2)nc2sc3c(c2c1=O)CCCC3	-2	i	i	i	-2
88	CC(NC(=O)c1ccc(Cl)cc1)C(=O)NC1=NCCS1 (centres undefined)	4	x	x	x	-5
89	O=c1[nH]c(SCc2cc(=O)n3ccccc3n2)nc2c1CCC2	2	i	i	i	-2
90	O=C(NCc1ccc(F)cc1)C1CC(=O)N(CCc2ccccc2)C1 (centres undefined)	1	x	x	x	-2

Whole records, looked up by structure:
CCOc1cc2[nH]c(=O)n(CCCCC(=O)N3CCCCCC3)c(=O)c2cc1OCC reads FPRL1 ligand: -2; VCAM-1 imaging: i; VCAM-1 up imaging: i; VCAM-1 inhibition: i; FPR ligand: -1
COc1cccc(C2C(C(=O)OCc3ccccc3)=C(C)Nc3ncnn32)c1OC (centres undefined) reads FPRL1 ligand: 2; VCAM-1 imaging: x; VCAM-1 up imaging: x; VCAM-1 inhibition: x; FPR ligand: -6

Going on with the list:
nr	Structure	FPRL1 ligand	VCAM-1 imaging	VCAM-1 up imaging	VCAM-1 inhibition	FPR ligand
91	CCN(CC)S(=O)(=O)c1ccc2[nH]cc(C(=O)NCCc3ccccc3)c(=O)c2c1	3	x	x	x	9
92	COCCCn1c(SCC(=O)Nc2cccc(C)n2)nnc1-c1ccco1	-3	i	i	i	-7
93	COc1ccccc1CNC(=O)CCS(=O)(=O)c1cccs1	-13	x	x	x	-10
94	O=C(c1ccc(S(=O)(=O)N2CCOCC2)cc1)N1CCN=C1SCc1cccnc1	0	x	x	x	1
95	O=C(NO)c1ccccc1O	1	i	i	i	-5
96	Cn1c(=O)c(-c2ccccc2)nn2c3ccccc3nc12	-7	i	i	i	1
97	COC(=O)CC1C(=O)NCCN1C(=O)NC1CCCCC1 (centres undefined)	-1	i	i	i	-3
98	COc1cccc(C(=O)Nc2c3c(nn2-c2ccccc2C)CS(=O)C3)c1OC (centres undefined)	-4	x	x	x	-17
